Compound activity as filed in PubChem.
GALR2 ag – agonists of human galanin receptor 2 (GALR2); activation, %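 (tested at 5 µM)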; AID 803; GALR2-expressing cells, agonist activation read-out; 140,000 tested, 0.48% active;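 active = above mean plus 3 SD of all compounds, about 5% in these data, not always enough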;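 also: 0% = vehicle buffer wells and 100% = reference agonist at full effect; tested in CHO reporter cells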
Target sequence (O43603 whole entry, looked up): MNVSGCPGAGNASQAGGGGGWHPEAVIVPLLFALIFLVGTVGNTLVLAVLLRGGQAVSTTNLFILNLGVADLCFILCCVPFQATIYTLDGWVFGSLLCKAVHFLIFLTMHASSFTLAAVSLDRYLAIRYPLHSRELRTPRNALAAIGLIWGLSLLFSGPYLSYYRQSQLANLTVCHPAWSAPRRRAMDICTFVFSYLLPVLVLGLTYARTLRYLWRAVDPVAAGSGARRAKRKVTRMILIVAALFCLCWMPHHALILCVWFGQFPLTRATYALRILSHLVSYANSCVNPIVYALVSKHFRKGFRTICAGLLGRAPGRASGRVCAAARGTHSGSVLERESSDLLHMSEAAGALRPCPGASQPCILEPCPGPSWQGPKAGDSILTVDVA
RGS16-Gao HTS – regulators of human RGS16-Galphao interaction. 220,000 tested, 0.38% active. bead-based flow cytometry RGS16-Galphao binding, fluorescence; actives lie on both sides. binding response (% of control), % at 10 µM. O15492+P09471;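 active = below 25% or above 175%, edge rows of some plates excepted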;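 also: Galphao activated by GDP with aluminum fluoride before binding; 100% = wells without compound and 0% = beads without RGS; some results beyond the cut were filed as inactive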
Target sequence (O15492 whole entry, looked up): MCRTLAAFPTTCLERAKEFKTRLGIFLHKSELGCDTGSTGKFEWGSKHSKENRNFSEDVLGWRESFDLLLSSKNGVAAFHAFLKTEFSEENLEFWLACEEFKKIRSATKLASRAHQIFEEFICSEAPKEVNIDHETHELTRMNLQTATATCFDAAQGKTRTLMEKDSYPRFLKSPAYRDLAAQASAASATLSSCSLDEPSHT
Target sequence (P09471 whole entry, looked up): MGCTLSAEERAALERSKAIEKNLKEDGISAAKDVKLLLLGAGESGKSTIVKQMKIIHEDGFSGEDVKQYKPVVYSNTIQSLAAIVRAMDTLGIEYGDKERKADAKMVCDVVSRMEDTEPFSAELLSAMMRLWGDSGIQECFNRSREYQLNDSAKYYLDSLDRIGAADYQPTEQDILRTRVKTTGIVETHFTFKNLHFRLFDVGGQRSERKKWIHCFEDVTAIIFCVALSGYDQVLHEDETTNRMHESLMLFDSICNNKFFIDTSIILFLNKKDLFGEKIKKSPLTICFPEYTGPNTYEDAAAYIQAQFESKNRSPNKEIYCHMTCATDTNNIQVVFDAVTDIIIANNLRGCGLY
PKD1 kinase inh – inhibitors of human PKD1 kinase | Q15139 | PKD1 kinase fluorescence polarization assay | inhibition, %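 (about 10 µM by stock and volumes)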 | 200,000 tested, 0.056% active | AID 797;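 active = inhibition of 50% or more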;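 also: controls were vehicle for no effect and a reference inhibitor for full effect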
Insulin prom inh – TRM-6 insulin promoter activity inhibition | TRM-6 cells (human fetal islet line), insulin promoter-eGFP reporter, imaging; reporter expression induced with tamoxifen | inhibition, % at 2 µM | 130,000 tested, 0.9% active;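 active = inhibition above the mean plus 3 SD, with well images judged a real hit on visual review, cut at about 60% in these data, passing the limit was not always enough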
HSV augment – HSV replication enhancement. HSV replication augmentation in cells, fold increase. maximum fold increase. 220,000 tested, 0.005% active. AID 1956;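 active = peak rise of 1.5-fold or more in the series; tested in PC3 cells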;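 also: first round at 10 µM; read as green reporter fluorescence; hits show the peak of a series up to 25 µM; 1 = signal of infected wells without compound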
Insulin prom inh cell count – second read-out of Insulin prom inh, no call of its own (marks repeat the call); normalized cell count, %; measured here: cell count, toxicity; reference of the scale not given here;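 cells exposed to compound for 48 h; stained nuclei by imaging scaled within each plate; lower means fewer cells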
HSV augment primary fold – also measured in HSV augment; calls as there; fold increase; compound at 10 µM; measured here: primary screen fold increase 10 uM; tested in PC3 cells;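 GFP signal in the first replicate; 1 = infected wells without compound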
* = called active by the depositor; i = inactive; nt = not tested or not shown.

no.	smiles	GALR2 ag	RGS16-Gao HTS	PKD1 kinase inh	Insulin prom inh
1	O=C(c1cccc2ccccc12)n1nnc2ccccc21	-2.5	nt	-9.8	-100.0
2	CC1Cc2ccccc2N1C(=O)c1ccc2c(c1)nnn2C (centres undefined)	-3.1	102.3	-3.7	-24.2
3	O=[N+]([O-])c1ccc(N2CCSCC2)cc1O	nt	98.5	nt	nt
4	CCOc1ccccc1NC(=O)c1ccccc1-c1nc(-c2ccccc2)no1	-3.7	105.1	-9.6	-38.5
5	CC(=O)c1cccc(NC(=O)COC(=O)c2cccc(N3C(=O)c4ccccc4C3=O)c2)c1	-0.4	101.3	-8.0	nt
6	COC(=O)c1ccc(COC(=O)c2ccc(SC)cc2OC)cc1	-1.6	98.6	2.3	nt
7	CS(=O)(=O)N(CC(=O)NCCSc1ccccn1)c1ccc(F)cc1	nt	34.2	-2.2	nt
8	Cc1cc(C(=O)NCc2ccccc2F)cs1	-0.9	70.6	-3.1	55.3
9	Cc1nn(Cc2ccccc2Cl)c(C)c1NC(=O)c1ccn(C)n1	-1.1	90.0	4.4	-15.4
10	COc1ccc(CNC(=O)CSc2ncn[nH]2)cc1	-1.1	202.6	-2.5	-75.8

no.	Insulin prom inh cell count	HSV augment	HSV augment primary fold
1	85.5	i	0.94
2	138.1	i	1.02
3	nt	i	1.19
4	93.1	i	1
5	nt	i	0.98
6	nt	i	0.98
7	nt	i	0.99
8	87.2	i	1.11
9	78.0	i	1
10	104.4	i	1.07

Carrying on:
no.	smiles	GALR2 ag	RGS16-Gao HTS	PKD1 kinase inh	Insulin prom inh
11	CCOC(=O)C1Cc2c([nH]c3ccccc23)C(C)N1 (centres undefined)	-1.8	98.3	0.1	-64.3
12	COc1ccc(OC)c(/C=N/NC(=O)CNC(=O)c2ccc(S(=O)(=O)N3CCOCC3)cc2)c1	-0.1	101.9	-5.6	21.4
13	CCCCn1nc2cc(C(=O)NCc3ccc(OC(F)(F)F)cc3)ccc2c1OC	-2.7	146.5	-8.8	22.6
14	Cc1sc(NC(=O)c2cccs2)nc1-c1ccccc1	0.3	101.2	2.3	18.8
15	O=C(O)c1ccccc1C(=O)c1ccc(N2CCOCC2)c([N+](=O)[O-])c1	nt	95.3	-4.2	nt
16	COc1ccc2cc3c(N)nn(C(=O)c4cccc(F)c4)c3nc2c1	nt	106.0	nt	nt
17	COc1ccc(-c2cc(C(=O)NCc3ccccc3)no2)cc1OC	-0.3	102.6	11.3	nt
18	CN=C(C)/C(C(=O)OC)=C(/O)c1c(F)cccc1F	nt	105.0	nt	nt
19	O=C(NCC(=O)N(Cc1cccs1)C(C(=O)NC1CCCC1)c1ccncc1)c1ccco1 (centres undefined)	-0.1	98.5	-6.7	-15.0
20	CN(C)c1ccc(CN2CCC(C(N)=O)CC2)cc1	nt	102.3	1.5	35.0

no.	Insulin prom inh cell count	HSV augment	HSV augment primary fold
11	106.7	nt	nt
12	173.8	i	0.96
13	82.2	i	1.05
14	47.3	i	0.94
15	nt	i	1.05
16	nt	i	1.09
17	nt	i	0.96
18	nt	i	0.93
19	203.9	i	0.93
20	102.6	i	1

(further entries)
no.	smiles	GALR2 ag	RGS16-Gao HTS	PKD1 kinase inh	Insulin prom inh
21	O=C(O)COCC(=O)Nc1ccc(-n2cnnn2)cc1	nt	94.1	-6.9	-58.3
22	CC(C)(C)c1ccc(C(=O)N2CCC(=O)N(C(COCc3ccccc3)Cc3ccccc3)CC2)cc1 (centres undefined)	-2.1	56.9	-4.0	-35.0
23	CCOc1ccc(-c2nc(C#N)c(N3CCN(C)CC3)o2)cc1	-1.3	105.0	-2.9	-4.5
24	CCOc1ccc2nc(N=NC3=C(O)CC(C)(C)CC3=O)sc2c1	nt	104.0	-1.5	14.3
25	O=C(NCCN1CCOCC1)c1ccc(CSc2nc3ccncc3n2Cc2ccc(F)cc2)cc1	nt	106.2	-2.4	nt
26	Cn1c(NCC(O)c2ccccc2)nc2c1c(=O)n(Cc1ccc(Cl)cc1)c(=O)n2C (centres undefined)	-2.3	113.8	-3.0	-200.0
27	CCOC(=O)c1ccc(-n2c(C)nc3c(cnn3-c3ccccc3C)c2=O)cc1	-0.6	104.1	5.8	nt
28	O=C(c1cccc(COc2ccc(Cl)cc2Cl)c1)N1CCN(c2ccccn2)CC1	-1.2	100.0	-5.8	30.8
29	CC(=O)N1N=C2/C(=C/c3ccccc3)CCCC2C1c1ccccc1 (centres undefined)	nt	104.8	-3.1	-38.5
30	FC(F)Oc1ccc(-c2c[n+]3c(n2-c2ccccc2)CCCCC3)cc1	nt	110.2	nt	nt

no.	Insulin prom inh cell count	HSV augment	HSV augment primary fold
21	107.2	i	1.01
22	78.3	i	0.86
23	142.4	i	0.86
24	111.5	nt	nt
25	nt	i	1.09
26	115.4	i	0.85
27	nt	i	1
28	127.8	i	0.84
29	38.6	i	0.94
30	nt	i	0.75

Additional structures:
no.	smiles	GALR2 ag	RGS16-Gao HTS	PKD1 kinase inh	Insulin prom inh
31	CCOc1ccc(S(=O)(=O)N2CCN(C(=S)NCc3ccco3)CC2)cc1	-1.1	107.8	0.2	-45.5
32	CCCCCOc1ccc(C(=O)N(Cc2ccco2)C2CCS(=O)(=O)C2)cc1 (centres undefined)	0.3	101.9	-7.8	nt
33	Nc1cc(C(=O)O)ccc1Nc1ccc(F)c(F)c1	-0.9	96.2	2.8	-10.0
34	Cc1cc(-c2cccc(Br)c2)c(C#N)c(N)n1	nt	98.9	1.9	-11.6
35	COc1cc(OC)c(NC(=O)c2ccco2)cc1Cl	0.0	104.3	-9.4	-22.2
36	CCN(CC)C(=O)C(C)OC(=O)COc1ccc(Cl)cc1Cl (centres undefined)	0.4	100.8	-7.9	-39.3
37	COc1ccc(Cl)c(NC(=O)Cn2nnc(-c3ccccc3N)n2)c1	0.1	98.0	-3.5	-23.1
38	CCN1CCN(C(=O)c2cn(CCOC)c(=O)c3c2c2ccccc2n3C)CC1	-0.1	107.4	2.9	20.0
39	COc1ccc(CCn2c(C)c(C(C)=O)c3cc(OC(=O)c4ccco4)ccc32)cc1OC	1.1	86.4	8.6	-33.3
40	N=C1c2ccccc2CN1NC(=O)CC12CC3CC(CC(C3)C1)C2	-0.6	113.5	-6.8	-14.3

no.	Insulin prom inh cell count	HSV augment	HSV augment primary fold
31	80.3	i	0.94
32	nt	i	0.96
33	136.1	i	0.99
34	61.1	i	1.12
35	77.6	i	0.95
36	96.5	i	0.9
37	92.5	i	0.75
38	85.8	i	0.96
39	126.4	i	0.98
40	92.2	i	0.89

(next part)
no.	smiles	GALR2 ag	RGS16-Gao HTS	PKD1 kinase inh	Insulin prom inh
41	Cc1ccc(-c2nc(-c3cccnc3)no2)c(C)c1	-0.3	105.9	-3.0	-54.3
42	COc1ccccc1NC(=O)c1ccc2c(c1)nnn2C	nt	110.7	-3.9	-22.2
43	COc1ccc(NC(=S)N(CCc2ccc(OC)c(OC)c2)Cc2ccccn2)cc1	nt	104.2	6.1	nt
44	COc1cc(/C=C/C(=O)c2ccc(C)cc2)ccc1OCC#N	-1.2	101.1	4.8	6.7
45	CCOc1ccc(NC(=S)Nc2cc(C)[nH]n2)cc1	nt	106.7	0.8	nt
46	Cc1cc(=O)oc2ccc(OCC(=O)N3CCc4ccccc43)cc12	-0.4	100.9	2.6	nt
47	COc1ccc2nc(N=NC3=C(O)CC(C)(C)CC3=O)sc2c1	nt	105.0	6.3	35.7
48	C=COC(=O)c1sc2nc(C)cc(C)c2c1N	nt	90.0	nt	nt
49	Cc1cc(C)cc(OC(=O)CS(=O)c2ccc(C(F)(F)F)cc2[N+](=O)[O-])c1 (centres undefined)	-0.7	101.0	1.9	-446.1
50	CCOC(=O)C1CCN(S(=O)(=O)c2ccc(-c3nc4ccccc4s3)s2)CC1	-1.4	101.8	-1.6	nt

no.	Insulin prom inh cell count	HSV augment	HSV augment primary fold
41	130.4	i	0.91
42	107.2	i	0.88
43	nt	i	1.14
44	89.0	i	0.62
45	nt	i	1.08
46	nt	i	0.6
47	65.1	i	0.83
48	nt	i	0.85
49	59.1	i	0.66
50	nt	i	0.88

Additional structures.
no.	smiles	GALR2 ag	RGS16-Gao HTS	PKD1 kinase inh	Insulin prom inh
51	COc1ccc(NC(=O)N2CCN(c3ccc([N+](=O)[O-])cc3)CC2)cc1OC	nt	97.4	-4.5	nt
52	COc1ccc(C2CC(c3ccccc3)Nc3ncnn32)cc1 (centres undefined)	-1.0	103.1	-2.3	nt
53	CN(C)S(=O)(=O)c1ccc(NC(=O)N2CCN(c3cccc(C(F)(F)F)c3)CC2)cc1	-0.7	94.6	0.5	43.3
54	O=C(CSc1ccc(Cl)cc1)Nc1ncccn1	-0.9	89.2	-5.0	-29.6
55	Cc1ccc(-n2nc(-c3cccnc3)cc2C(=O)N2CCOCC2)c(C)c1	-0.1	59.5	-6.2	13.3
56	CCN1CCN(C(=O)Nc2cc(Cl)ccc2OC)CC1	nt	103.2	-0.8	5.3
57	C/C(=N\NC1=N[C@H]2CS(=O)(=O)C[C@H]2S1)c1ccccc1	nt	104.0	nt	nt
58	CSc1sc(-c2nnc(SCC(=O)Nc3ccc(Cl)cc3)n2C)c2c1C=CCC2	nt	100.8	nt	nt
59	O=C(c1ccc(Cl)c(Cl)c1)N1CCOCC1	0.7	104.4	3.2	-19.4
60	NC(=O)c1ccc(NCCc2ccccc2)c([N+](=O)[O-])c1	nt	101.0	-8.3	0.0

no.	Insulin prom inh cell count	HSV augment	HSV augment primary fold
51	nt	i	0.82
52	nt	i	0.93
53	58.1	i	0.56
54	90.7	i	0.96
55	94.5	i	1.02
56	162.7	i	1.1
57	nt	i	0.98
58	nt	i	0.88
59	146.1	i	0.99
60	100.6	i	0.93

The last 3 entries of the part before come first, to join the parts:
no.	smiles	GALR2 ag	RGS16-Gao HTS	PKD1 kinase inh	Insulin prom inh
58	CSc1sc(-c2nnc(SCC(=O)Nc3ccc(Cl)cc3)n2C)c2c1C=CCC2	nt	100.8	nt	nt
59	O=C(c1ccc(Cl)c(Cl)c1)N1CCOCC1	0.7	104.4	3.2	-19.4
60	NC(=O)c1ccc(NCCc2ccccc2)c([N+](=O)[O-])c1	nt	101.0	-8.3	0.0
61	CN(C)c1cccc(C(=O)OC(C(=O)Nc2ccc(Cl)cc2C(F)(F)F)c2ccccc2)c1 (centres undefined)	-1.1	102.5	7.8	nt
62	Cc1ccc(C)c(Cn2c(=O)n(CCC(=O)NCc3ccco3)c(=O)c3ccccc32)c1	0.2	90.3	-8.9	-53.9
63	CCCn1nnnc1SCC(=O)Nc1ccc(F)cc1	-1.1	100.2	6.6	nt
64	CCCCOc1ccc(C(O)C(CN2CCOCC2)c2ccccc2)cc1 (centres undefined)	nt	92.1	nt	nt
65	Cc1ccccc1NC(=S)NCC1CCN(C(C)c2ccccc2)C1 (centres undefined)	nt	102.3	-2.4	nt
66	CN(C)c1ccc(NC(=O)C(=O)NCCOc2ccccc2)cc1	nt	104.0	-4.9	-21.4
67	COC(=O)CC1=NN(c2ccccc2)C(=O)/C1=C\c1ccc(OC)cc1	-0.9	34.3	-1.8	nt
68	O=C(NC1CCN(Cc2ccccc2)CC1)c1ccc2c(c1)OCCCO2	nt	97.4	nt	nt
69	O=C(CSc1ncnc2ccccc12)Nc1ccc2c(c1)OCCO2	nt	104.0	13.7	nt
70	O=c1c2ccccc2nc(-c2ccco2)n1/N=C/c1ccccc1O	0.1	124.5	-1.6	15.0
71	CCn1c(COc2ccc(Cl)cc2)nnc1SC1CCc2ccccc2C1=O (centres undefined)	0.3	45.8	-8.1	3.3
72	O=C(NNC(=O)C1CCN(S(=O)(=O)c2ccc(Cl)cc2)CC1)c1ccncc1	nt	100.8	-8.5	nt

no.	Insulin prom inh cell count	HSV augment	HSV augment primary fold
58	nt	i	0.88
59	146.1	i	0.99
60	100.6	i	0.93
61	nt	i	0.91
62	117.2	nt	nt
63	nt	i	0.883
64	nt	i	0.97
65	nt	i	0.84
66	90.2	i	1.05
67	nt	i	0.91
68	nt	i	0.95
69	nt	i	0.91
70	118.2	i	0.95
71	115.3	i	1.11
72	nt	i	1.11

Molecules from the list above with a COOH group (3):
no.	smiles	GALR2 ag	RGS16-Gao HTS	PKD1 kinase inh	Insulin prom inh
15	O=C(O)c1ccccc1C(=O)c1ccc(N2CCOCC2)c([N+](=O)[O-])c1	nt	95.3	-4.2	nt
21	O=C(O)COCC(=O)Nc1ccc(-n2cnnn2)cc1	nt	94.1	-6.9	-58.3
33	Nc1cc(C(=O)O)ccc1Nc1ccc(F)c(F)c1	-0.9	96.2	2.8	-10.0

no.	Insulin prom inh cell count	HSV augment	HSV augment primary fold
15	nt	i	1.05
21	107.2	i	1.01
33	136.1	i	0.99

Screen by screen, quoted from above.
Compounds 35 to 39 in Insulin prom inh cell count read 77.6, 96.5, 92.5, 85.8, 126.4
Compounds 35 to 39 in GALR2 ag read 0.0, 0.4, 0.1, -0.1, 1.1
Compounds 35 to 39 in PKD1 kinase inh read -9.4, -7.9, -3.5, 2.9, 8.6
